RanGTP-Imp inh – disruptors of Ran-importin-beta complex formation – biochemical, FRET, CFP-Ran, YFP-importin-beta, homogeneous, primary screen. AID 2216. cell-free CFP-Ran/YFP-importin-beta FRET ratio. actives 1.1% (n = 300,000). inhibition, % (concentration not given with the values);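 active = most replicates above 15%; inconclusive = exactly half above 15%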;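 note: 0% = DMSO wells and 100% = Ran loaded with GDP instead of GTP; wells of about 40 µL received 100 nL stock; the first replicate is given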
LANA-H2A inh – blocks KSHV LANA binding to histone H2A/H2B. Q9QR71. cell-free LANA-H2A/H2B peptide, fluorescence polarization. inhibition, % (concentration not given with the values). actives 0.6% (n = 320,000). AID 2629; in the data active = inhibition mostly above about 10%, no sharp cut-off; inactive = mostly below about 6.7%;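 note: stock transfer was 7.5 nL into about 10 µL; 0% = median of vehicle wells and 100% = median of positive control wells; one replicate is shown; the record names a cut of 25% in any replicate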
Calb FLC – affects C. albicans growth with fluconazole. AID 1979. actives 0.57% (n = 300,000). C. albicans CaCi-2 (fluconazole-resistant clinical isolate) + fluconazole, Alamar Blue growth, 48 h. growth inhibition, % (concentration not given with the values);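 active = most replicates above 75%; inconclusive = exactly half above 75%; inactive = most below 75%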;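 note: all wells also contain fluconazole at 8 µg/ml as a sub-toxic cotreatment; 0% = median of DMSO wells and 100% = median of geldanamycin control wells; wells of about 8 µL received 7.5 nL stock; the first replicate is given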
T cruzi inh – blocks replication of Trypanosoma cruzi; T. cruzi beta-gal in NIH3T3, luminescence, 90 h; inhibition, % (concentration not given with the values); actives 1.4% (n = 300,000); AID 1885;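 active = mean inhibition across valid replicates above about 55%, limit read from the data; inconclusive = mean below that limit but half or more replicates reach it; inactive = mean below it, under half of replicates reach it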;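 note: signal also drops with host cell toxicity which is not excluded here; 0% = plate median of DMSO wells and 100% = zero luminescence signal; higher percent means less beta-gal luminescence so fewer parasites; stock transfer was 50 nL into about 50 µL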
Bfl-1 A1 inh – inhibitors of the anti-apoptotic protein A1, read as caspase activation. caspase activation, % (concentration not given with the values). MEF A1-2A-BIM cells, Caspase-Glo 3/7 luminescence, 3 h; percent of clofoctol response, vehicle zero. actives 0.066% (n = 330,000);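 active = over half of replicate activation scores above 10%, or exactly half above 10 with the replicate mean above 10; inconclusive = replicate mean below 10 yet half the replicates above 10; inactive = over half of replicates below 10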;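 note: wells of about 30 µL received 50 nL stock; many hits fall short of the cut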
Beta2AR agonist – agonists of human beta-2 adrenergic receptor inducing internalization; P07550; Am2.2-beta2AR cells, FAP receptor internalization, flow cytometry; reference of the scale not given here; response, % (test concentration not listed); actives 0.43% (n = 340,000); AID 504454;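 active = response above a set limit, near 3 SD of response in nonfluorescent compounds, cut at about 42% in these data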;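 note: stock transfer was 100 nL into about 11 µL; a reference agonist was the positive control; negative values mostly stem from fluorescent compounds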
Target sequence (P07550 whole entry, looked up): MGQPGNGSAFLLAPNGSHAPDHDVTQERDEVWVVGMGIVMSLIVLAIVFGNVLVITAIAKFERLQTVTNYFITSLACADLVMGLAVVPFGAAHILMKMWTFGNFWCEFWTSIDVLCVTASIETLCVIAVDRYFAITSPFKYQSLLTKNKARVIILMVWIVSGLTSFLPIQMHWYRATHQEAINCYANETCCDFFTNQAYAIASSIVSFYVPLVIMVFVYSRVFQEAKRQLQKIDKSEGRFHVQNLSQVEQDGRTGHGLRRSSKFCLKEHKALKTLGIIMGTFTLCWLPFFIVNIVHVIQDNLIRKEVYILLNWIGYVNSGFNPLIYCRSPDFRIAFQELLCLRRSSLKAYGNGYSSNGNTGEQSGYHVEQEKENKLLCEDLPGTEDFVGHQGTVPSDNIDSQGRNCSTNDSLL
Beta apoptosis – beta cell apoptosis inhibition. AID 435005. INS-1E cytokine-induced death, ATP luminescence, 48 h; percent of positive-control rescue, neutral wells zero. actives 0.8% (n = 300,000). protection from apoptosis, % (concentration not given with the values);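 active = all replicates at 75% or more, or half of them and the mean; inconclusive = half reach 75% but not the mean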;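 note: 0% = cytokine-treated negative control wells and 100% = positive control rescue; higher means more ATP so stronger rescue from cytokine killing; wells of about 40 µL received 100 nL stock; the first replicate is given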
UCH37 inh – inhibitors of human deubiquitinating enzyme UCH37; Q9Y5K5; purified proteasome/UCH37, Ub-AMC cleavage fluorescence; inhibition, % (test concentration not listed); actives 0.33% (n = 330,000); AID 588478;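 active = mean of two replicates above 20%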;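 note: 0% = compound-free wells with enzyme and 100% = wells lacking proteasome; stock transfer was 100 nL into about 20 µL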
Target sequence (Q9Y5K5 whole entry, looked up): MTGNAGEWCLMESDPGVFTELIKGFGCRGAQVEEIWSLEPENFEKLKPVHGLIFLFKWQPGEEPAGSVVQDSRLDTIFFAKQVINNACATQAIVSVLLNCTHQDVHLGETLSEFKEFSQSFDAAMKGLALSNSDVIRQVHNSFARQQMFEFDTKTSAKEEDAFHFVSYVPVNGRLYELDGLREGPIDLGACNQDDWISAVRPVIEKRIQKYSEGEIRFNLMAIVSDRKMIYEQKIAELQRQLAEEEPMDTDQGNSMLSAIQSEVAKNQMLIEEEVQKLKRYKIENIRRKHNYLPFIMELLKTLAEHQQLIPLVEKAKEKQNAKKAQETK
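Assay system: Proteasome-bound UCH37. Buffer or medium: pH 7.4 Tris-HCl (50 mM) with ovalbumin, ATP-MgCl2, DTT. Incubation: 30 min preincubation with enzyme, 25 min cleavage at room temperature. Measured by: fluorescence, ex 355 nm, em 460 nm. Read-out basis: percent inhibition. Control set: wells without proteasome as full block, compound-free enzyme plus substrate as uninhibited.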
Starred values were filed as active, the others as inactive; ? = inconclusive; / = not tested or not shown.

SMILES	RanGTP-Imp inh	LANA-H2A inh	Calb FLC	T cruzi inh	Bfl-1 A1 inh	Beta2AR agonist	Beta apoptosis	UCH37 inh
COC(=O)CSc1nc2nc(C)c(Br)cc2[nH]1	1.1	2.8	?	-25	-0.9	4	-11	3.1
O=C(Nc1ccccc1C(=O)N1CCOCC1)c1cccc(S(=O)(=O)N2CCCC2)c1	1.9	/	-4	-7	/	2	/	-0.1
CCCNS(=O)(=O)c1ccc(CCC(=O)NCc2ccco2)cc1	0.8	4.0	53	-1	-0.8	2	-4	1.7
CC1(C)N=C(N)N=C(N)N1c1cccc(CN)c1	3.4	-0.5	3	-3	1.2	1	/	7.0
CN(C)c1ccc(/C=C/c2nc3ccccc3c(=O)n2CCO)cc1	-63	-17	-15	-2	0.9	7	0	4.4
CC(=O)N1C(=O)CC(C)N(C(C)=O)c2ccc([N+](=O)[O-])cc21 (configuration not stated)	0.7	5.8	-2	-12	0.0	-5	-8	3.6
COC1Cc2ccccc2N(C(=O)N2CCN(CCO)CC2)c2ccccc21 (configuration not stated)	1.3	1.1	-4	-3	-0.8	3	2	2.0
O=C(CN1C(=O)C2C3C=CC(C3)C2C1=O)Nc1nc(SCc2ccc(Cl)cc2)n[nH]1 (configuration not stated)	-1.8	1.2	-21	9	0.1	5	-4	0.2
CC1(C)CC(NC(=O)c2cc(COc3cccc(C(F)(F)F)c3)on2)CCO1 (configuration not stated)	-0.4	0.6	24	2	0.8	4	1	1.2
Cc1ccc(-n2nc3c(=O)n(CCCC(=O)NCC(C)c4ccccc4)nc(C)c3c2C)cc1 (configuration not stated)	-3.3	-2.6	-4	-19	-0.8	-5	2	3.3
CN(Cc1ccccc1)C(=O)c1ccc(NC(=O)Cc2ccc([N+](=O)[O-])cc2)cc1	/	0.5	/	/	-0.7	-9	3	-0.6
O=c1[nH]c(Cc2ccccc2Cl)nc2ccccc12	-0.7	1.3	0	-2	-0.7	-1	/	4.3
COC(=O)C1=C(N)Oc2cc(C)n(CCCn3ccnc3)c(=O)c2C1c1ccc(Cl)cc1 (configuration not stated)	4.3	7.0	-7	-6	0.0	-5	0	3.0
CC(C)CC(=O)NC(c1ccccc1Cl)c1c(O)ccc2ccccc12 (configuration not stated)	4.4	-7.4	6	10	1.1	13	-1	-2.2
O=C(CNC(=O)c1ccc(Br)o1)NC12CC3CC(CC(C3)C1)C2	-0.1	-2.0	-24	3	-0.2	-9	-2	1.1
COC(=O)c1cccc(N(C(=O)c2ccco2)C(C(=O)NC2CCCC2)c2ccc(N3CCOCC3)cc2)c1 (configuration not stated)	2.4	2.6	-4	-19	0.6	8	-1	0.8
O=C(COc1ccc(F)cc1F)N1CCCCCCC1	-1.3	-0.3	-1	0	0.4	-4	-10	2.4
COc1cc(CNCCNC(=O)c2nonc2N)ccc1OCc1ccc(Cl)nc1	-3.1	3.4	-5	45	1.9	-14	-4	5.2
COc1ccc(Nc2nc(NCc3ccco3)nc(N/N=C/c3ccccc3)n2)cc1	0.4	1.0	30	22	-0.3	10	-3	/
O=C(NCCc1c[nH]c2ccc(Cl)cc12)c1ccc([N+](=O)[O-])cc1	-0.6	1.7	6	7	0.1	11	4	3.4
COc1ccc(-c2noc(Cc3cccs3)n2)cc1	0.7	-2.0	-2	6	-0.9	0	5	-0.7
COC(=O)c1sccc1NC(=O)c1ccc(Br)o1	1.3	-4.3	-6	-8	-0.1	-5	-3	0.2
CCN1CCN(C(=S)Nc2ccc([N+](=O)[O-])cc2)CC1	2.0	-6.1	6	2	0.3	14	0	6.0
COc1ccc(NC(=O)c2ccc(-c3nn(C)c(=O)c4ccccc34)cc2)cc1C(N)=O	4.2	2.2	0	3	0.8	-1	-5	-26
CCC1(C)SC(N)=NN1C(C)=O (configuration not stated)	0.7	0.6	20	-9	0.2	15	0	-0.8
COc1ccc(OCC(=O)NC(=S)Nc2ccccc2F)cc1	0.6	-0.5	-2	-18	0.7	-12	2	4.0
Nc1nnnn1/N=C/c1ccccn1	-0.6	-2.4	-13	-16	0.8	-3	-2	/
Cn1nnc2cc(C(=O)N3CCC(c4ccccc4)C3)ccc21 (configuration not stated)	0.4	0.2	-2	4	0.4	3	-4	4.2
Cc1ccc(S(=O)(=O)N2CCCC2)cc1C(=O)O	1.6	1.9	-26	0	0.6	3	3	/
O=C(CC1C[C@H](C(=O)N2CCOCC2)[C@@]2(CCC3CCCC3)c3[nH]c4ccccc4c3CCN2C1=O)NCCC1=CCCCC1 (some centres not stated)	/	5.7	/	/	0.5	-6	5	1.3
COc1ccccc1OCC(=O)Nc1ccc2c(c1)C(=O)N(CC1CCCO1)C2=O (configuration not stated)	-3.6	3.0	-5	6	-0.2	2	-1	-0.1
COc1cccc(CNC(=O)C(CC(C)C)NC(=O)c2ccccc2C)c1 (configuration not stated)	-1.9	11	-1	-5	-0.1	-11	-3	5.8
c1ccc(C(c2ccccn2)c2ccccn2)cc1	-3.4	-2.7	-6	34	0.4	1	-1	-1.3
CC1(c2ccccc2)NC(=O)N(N)C1=O (configuration not stated)	1.8	3.5	-2	-3	1.2	5	-5	1.6
COc1cccc(OC)c1C(=O)Nc1ccc2c(c1)OCCO2	1.4	-6.6	4	-11	/	-1	-1	1.7
Cn1c(-c2sc3ccccc3c2Cl)n[nH]c1=S	-0.5	-0.1	23	11	0.5	2	-2	1.5
O=C(CSc1nnc(-c2cccs2)o1)Nc1cccc(S(=O)(=O)N2CCCCC2)c1	-0.1	1.9	22	-8	-0.3	-7	-3	0.3
Cc1cc(C)nc(NC(=O)c2c(Cl)cccc2Cl)n1	1.0	-12	2	-4	0.1	3	-6	2.1
Clc1ccccc1Oc1cnc2ccccc2n1	5.5	1.3	5	-5	0.1	18	-6	3.9
C#CCn1c(=NC(=O)c2ccc(S(=O)(=O)N3CCc4ccccc4C3)cc2)sc2cc(S(N)(=O)=O)ccc21	9.9	8.2	-6	53	0.4	7	104*	-153
O=C(c1ccco1)N1CCN(CCOCCOc2cccc3ccccc23)CC1	4.9	-2.6	-7	24	0.6	2	3	1.0
CCN(CC)S(=O)(=O)c1ccc(OC)c(NC(=O)CC2CCCC2)c1	2.4	-2.9	-2	4	0.5	-5	4	0.6
CCOC(=O)Cn1c(=O)oc2cc(S(=O)(=O)N3CCc4ccccc43)ccc21	-1.1	-6.5	1	13	1.6	-13	2	0.6
Cc1cc(C)c(C)c(S(=O)(=O)N2CCC(C(=O)NNC(=O)c3ccccc3O)CC2)c1C	3.8	/	?	17	0.7	2	37	-8.7
C[C@H](CO)N1C[C@H](C)[C@@H](CN(C)C(=O)Nc2ccccc2)Oc2ccc(NC(=O)C3CC3)cc2C1=O	/	-2.2	/	/	-0.4	-7	1	1.5
COCCNC(=O)C(C)N1c2cccc3cccc(c23)S1(=O)=O (configuration not stated)	1.1	-1.5	-5	2	-0.1	-1	-4	-49
c1ccc(COc2ccc3nocc3c2)cc1	-0.1	5.4	12	-3	-12	-2	0	-1.4
Cc1ccsc1C(=O)NCCC(c1ccccc1)c1ccccc1	-2.4	-0.9	?	31	-0.2	-29	-4	-1.0
CCOC(=O)C1=C(C)N(CCCC(=O)O)C(=O)NC1c1ccc(Cl)cc1 (configuration not stated)	-0.1	-3.5	8	-5	0.0	2	1	3.9
Cc1ccc(C(=O)N(C)c2ccc(OCC(=O)N3c4ccc(C)cc4C4CN(C)CCC43)cc2)cc1 (configuration not stated)	2.5	-3.1	19	68*	0.3	7	0	4.5
COc1ccccc1CN1CCN(S(=O)(=O)c2ccc(C)cc2)CC1	-1.9	1.1	-4	-3	0.5	4	-8	1.2
O=C(c1ccccc1)c1ccc(Cn2cc(-c3ccccc3)nn2)cc1	0.7	0.7	10	-7	-3.2	-15	68	0.4
C/C(=N\Nc1nc2ccccc2[nH]1)c1ccc(N2CCOCC2)cc1	3.7	3.1	2	24	-2.1	9	17	/
CCOc1cc(/C=N/NC(=O)C(=O)NCCCOC(C)C)cc(Br)c1O	-4.2	2.7	-6	-22	-0.2	1	-2	/
CS(=O)(=O)c1ccc([C@@H](O)[C@@H](CO)NC(=O)C(Cl)Cl)cc1	-1.3	-8.5	17	-3	-0.6	-5	22	-1.0
COc1ccccc1CNC(=O)CS(=O)(=O)c1ccc(C)cc1	-1.8	1.7	-3	-4	1.0	3	3	-2.5
CC(=O)Cc1nsc(NC(=O)c2ccc(Cl)cc2Cl)n1	1.9	1.4	60	-21	0.3	-1	-3	0.5
CC(C)C(=O)Nc1cc2c(cc1C(=O)c1ccccc1)OCCO2	2.8	0.5	6	0	0.7	-11	-10	2.8
Nc1nncn1C(=O)c1cc(Br)ccc1Cl	5.9	1.2	-14	-6	1.8	-2	2	2.5
Cn1cccc1/C=N/NC(=O)Cc1cccs1	2.3	4.9	-2	-3	0.2	-3	105*	/

As a short view, 2 of the compounds above:
SMILES	RanGTP-Imp inh	LANA-H2A inh	Calb FLC	T cruzi inh	Bfl-1 A1 inh	Beta2AR agonist	Beta apoptosis	UCH37 inh
Nc1nncn1C(=O)c1cc(Br)ccc1Cl	5.9	1.2	-14	-6	1.8	-2	2	2.5
Cn1cccc1/C=N/NC(=O)Cc1cccs1	2.3	4.9	-2	-3	0.2	-3	105*	/

(listing goes on)
SMILES	RanGTP-Imp inh	LANA-H2A inh	Calb FLC	T cruzi inh	Bfl-1 A1 inh	Beta2AR agonist	Beta apoptosis	UCH37 inh
Cc1sc(/C=C2\C(=O)ON=C2c2ccccc2)cc1Br	-3.1	0.2	-3	-2	-2.0	/	-13	/
Cc1cc(C)n(CC(=O)O)n1	1.9	1.4	/	2	0.7	12	-4	-5.5
COc1ccc(C(=O)NCC(=O)N/N=C/C(C)=C/c2ccccc2)cc1OC	?	0.9	2	1	-0.5	23	1	/
CCCn1c(CCC(=O)O)nc2cc(S(N)(=O)=O)ccc21	0.7	/	9	-4	/	-2	/	1.2
O=C1NC(NS(=O)(=O)c2ccc(Cl)cc2)(C(F)(F)F)C(=O)N1Cc1cccnc1 (configuration not stated)	5.8	-1.8	16	-9	1.3	4	1	4.1
Cc1onc(-c2ccccc2Cl)c1C(=O)Nc1c(C)n(C)n(-c2ccccc2)c1=O	-4.4	1.3	-7	-7	-0.3	-1	/	0.9
CCn1c(SCC(=O)Nc2ccc(S(=O)(=O)Nc3ccccn3)cc2)nnc1-c1ccncc1	0.7	12	5	-13	0.0	29	-1	-1.7
C/C(=N\O)c1oc2ccc3c(C)cc(=O)oc3c2c1C	3.1	2.2	-4	-13	-0.3	/	1	/
Cc1cc(N2CCCCC2)nc(N2CCOCC2)n1	0.5	-2.0	25	0	-0.1	-5	/	1.6
Cc1ccc(Cn2ncc3c(N4CCOCC4)ncnc32)cc1	/	2.0	/	/	0.1	7	-10	3.1
Cc1ccccc1CN1CCN(CC2CC2)CC1CCO (configuration not stated)	3.2	2.7	-6	-10	0.1	2	/	-3.4
Cc1cccc(NC(=O)c2ccc3c(c2)C(=O)N(Cc2cccnc2)C3=O)c1C	1.1	1.2	2	-6	0.5	-4	3	2.9
COc1ccc(NC(=O)C(=O)N/N=C(\C)CC(=O)Nc2cc(C)ccn2)c(OC)c1	3.5	4.5	-9	-13	-0.2	-7	-15	/
